Mtb H37Rv – Mycobacterium tuberculosis H37Rv growth inhibition, cell based, confirmatory dose response (AID 1949); actives 1.6% (n = 100,000); one-dose inhibition, % at 10 µg/mL; IC50 in µg/mL for titrated hits; most inactive calls were filed without a number and no value below 0 was filed;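 active = confirmed in a dose series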;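 note: bacteria grown 7 days with compound before Alamar blue readout; 0% = untreated bacteria and 100% = reference antibiotic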
* marks the source's active call; other numbers are inactive results; i = inactive.

Compound | Mtb H37Rv
Cc1c(NC(=O)c2ccc(N(Cc3ccccc3)S(C)(=O)=O)cc2)c(=O)n(-c2ccccc2)n1C | i
COC(=O)c1ccc(NC(=O)CSc2nc(=O)cc(N)n2-c2ccccc2)cc1 | i
Cc1cccc(OCC(=O)Nc2cc(C(F)(F)F)ccc2N2CCOCC2)c1 | i
COc1ccc(Cl)cc1C(=O)Nc1ccccc1SC | 15%
O=C(NCc1ccc2c(c1)OCO2)c1ccc(C2SCC(=O)N2Cc2ccco2)cc1 (stereo not drawn) | i
COCCCN1C(=O)c2ccc(C(=O)Oc3ccc4ccccc4c3)cc2C1=O | i
O=C(Nc1cccc(S(=O)(=O)N2CCOCC2)c1)c1cccs1 | i
COc1ccc(CSc2nc3nc4c(cc3c(=O)n2-c2cccc(C)c2)COC(C)(C)C4)cc1 | 1%
Cc1ccc(S(=O)(=O)Nc2ccc(O)c(C(=O)O)c2)c(C)c1 | 9%
CCCC(=O)c1ccc(OCC(=O)Nc2ccccc2C(F)(F)F)cc1 | 27%
O=c1nc(N2CCCCCC2)nc(N2CCCCCC2)[nH]1 | i
Cc1cc(C)c(C)c(OCC(=O)N2CCN(Cc3ccc4c(c3)OCO4)CC2)c1 | i
COc1ccc(NC(=O)c2ccc(OC(C)C(=O)O)cc2)cc1Cl (stereo not drawn) | i
COC(=O)c1ccc(C(=S)N2CCCCC2)cc1 | i
O=c1c2ccccc2nc(-c2ccccc2)n1-c1ccc(O)cc1 | i
O=S(=O)(c1cccc2nsnc12)N1CCN(c2cccc(Cl)c2)CC1 | 2%
CC1=CC(C)(C)N2C(=O)C3(C(C#N)=C(N)Oc4cc(C)oc(=O)c43)c3cc(C)cc1c32 (stereo not drawn) | i
Cc1ccc(N(c2ncnc(N)c2[N+](=O)[O-])C2CCCCC2)cc1 | i
Cc1nc2c(-c3ccccc3)c(C)nn2c(N)c1-c1ccccc1 | 9%
O=C(CN1CCCC1)Nc1cccc(Cl)c1Cl | i
COc1ccc(S(=O)(=O)Nc2ccccc2C(F)(F)F)c(Cl)c1Cl | 8%
O=C(O)c1coc(CNC(=O)c2cocc2C(=O)O)c1 | i
Cc1cccc(-c2nn3c(-c4ccccc4)nnc3s2)c1 | 42%
O=C(CS(=O)(=O)Cc1ccccc1)Nc1ccc2c(c1)OCO2 | i
O=C(NCCc1cccc2ccccc12)c1ccc2ccccc2n1 | i
Cc1nnc2sc(-c3ccc(NC(=O)c4ccc(C(C)C)cc4)cc3)nn12 | i
O=C(O)C1C2C=CC(O2)C1C(=O)Nc1ccc(Cl)cc1Cl (stereo not drawn) | i
CC(C)(C)c1ccc(S(=O)(=O)Nc2cccc(CO)c2)cc1 | 1%
COc1ccc(Cc2nnc(NC(=O)c3ccc4c(c3)OCO4)s2)cc1 | i
COc1ccc(OCCCC(=O)Nc2nc(-c3ccc(Br)cc3)cs2)cc1 | i
COc1ccccc1CC(=O)Nc1cc(Cl)ccc1O | 2%
Cc1cc(C(F)F)n2nc(C(=O)Nc3cc(Cl)ccc3Cl)nc2n1 | i
COc1cccc(N2CCN(C(=O)Nc3ccccc3)CC2)c1 | 1%
O=C(Nc1ccc(F)cc1)N1CCCCC1 | 4%
CCOC(=O)c1c(CSc2ccccc2)n(-c2ccccc2)c2ccc(O)c(CN(C)C)c12 | 1.4µg/mL*
N#C/C(=C/c1ccc(F)cc1)c1ccc(C#N)cc1 | 0%
COc1cccc(-c2ccc3c(N)c(C(=O)Nc4cc(Cl)ccc4Cl)sc3n2)c1 | 6%
CCCC(=O)Nc1ccc(C(=O)N2CCN(c3cccc(Cl)c3)CC2)cc1 | i
CC(NC(=O)C(C)N1c2cccc3cccc(c23)S1(=O)=O)c1ccccc1 (stereo not drawn) | i
COc1ccc(-c2cc3ccc(O)c(CN4CCN(C)CC4)c3oc2=O)cc1 | i

Going on with the list.
SMILES	Mtb H37Rv
COc1cc(NC(=O)CSc2ccc(Cl)cc2)ccc1NC(=O)c1ccco1	4%
CCOC(=O)C1C(=O)C=C(/C=C/c2cccs2)CC1c1ccccc1 (stereo not drawn)	7%
Cn1c(=O)n(Cc2ccco2)c(=N)c2c3c(sc21)CCC3	i
Fc1ccc2[nH]c3nc(=S)[nH]nc3c2c1	i
Cc1ccc(CN(CC(=O)N2CCCC2)S(=O)(=O)c2ccc(Cl)cc2)cc1	i
O=C(Nc1ccc(Br)cn1)Nc1ccc(Cl)cc1Cl	i
O=S(=O)(/C=C/c1ccccc1)NCc1ccc2c(c1)OCO2	1%
O=C(CCn1cnc2ccccc2c1=O)Nc1ccc(F)cc1	i
COc1ccccc1-n1c(/C=C/c2ccc(Cl)cc2Cl)nc2ccccc2c1=O	i
CCOC(=O)C1=C(SCc2ccccc2)NC(=O)C(C#N)C12CCCCC2 (stereo not drawn)	i
CC1CCCC(C)N1CC(O)COc1ccc(Br)cc1 (stereo not drawn)	i
CCn1ncc(Br)c1C(=O)Nc1ccccc1C(=O)OC	i
COc1ccc(NC(=O)Cn2c(-c3ccccc3)nc3sc4c(c3c2=O)CCCC4)cc1	11%
CCN(CC(=O)N1CCCCCC1)S(=O)(=O)c1ccc(C)cc1	i
CCOC(=O)CN(C)C1=NS(=O)(=O)c2ccccc21	i
CCOc1ccc(C(=O)NC(=S)Nc2cc(C(=O)O)ccc2Cl)cc1Br	2%
Cc1ccc(NC(=O)c2ccc3c(c2)OCCO3)c(OC(F)F)c1	3%
CN(C)CCNC(=S)Nc1cccc(F)c1	i
CCN(CC)C(=O)C(=O)Nc1cccc(F)c1	i
Nc1nc(SCc2cccc3ccccc23)n[nH]1	i
CC(C)Oc1cccc(C(=O)N2CCc3ccccc32)c1	i
Cc1ccc(C(NC(=O)CC(C)C)c2c(O)ccc3ccccc23)cc1 (stereo not drawn)	i
COCC(=O)n1nc(-c2ccccc2)nc1NCc1ccccc1	i
c1ccc(CNc2nnc(-c3cccnc3)s2)cc1	i
Cc1nn(C)c(C)c1NC(=O)c1ccc(S(=O)(=O)N(C)C)cc1	i
Cc1cc(C)c(S(=O)(=O)Nc2ccc(S(=O)(=O)N3CCCC3)cc2)c(C)c1	5%
Cc1ccc(S(=O)(=O)CC(=O)Nc2ccc(Cl)cc2C)cc1	i
CCC(C)c1ccccc1OCC(=O)Nc1ccc(S(N)(=O)=O)cc1 (stereo not drawn)	i
Cc1cccc(NC(=O)C(=O)NCc2ccncc2)c1	i
CC1=C(C(=O)Nc2ccccc2Cl)C(c2ccccc2Cl)NC(=S)N1 (stereo not drawn)	i
Cn1nnnc1SCc1ccc(C(=O)Nc2ccccc2F)cc1	2%
O=C(CCc1ccccc1)NC(c1ccccc1)C1CCCC1 (stereo not drawn)	i
CCOC(=O)c1c(NC(=O)c2cc3ccccc3oc2=O)sc(C)c1-c1ccccc1	i
CC(C)c1c(-c2ccccc2)[n+](=O)c2c(n1[O-])CCC2	i
CCn1c(Cc2ccccc2)n[nH]c1=S	i
COc1ccc(NC(=O)CSc2nc(-c3cccs3)cc(C(F)(F)F)n2)c([N+](=O)[O-])c1	i
CC(C)(C)c1cc(C(F)(F)F)n2ncnc2n1	4%
CCC(=O)Nc1c(-c2ccc(C)cc2)nc2ccc(C)cn12	1%
CCCCCCCNC(=O)COc1c(C)cc(Br)cc1C	1%
CC1=C(C)C(NS(=O)(=O)c2ccccc2)(C(F)(F)F)C(=O)O1 (stereo not drawn)	i
COc1ccc(OC)c(NC(=O)C(=O)NCc2ccncc2)c1	i
CC1Cc2ccccc2N1C(=O)Cc1cccs1 (stereo not drawn)	2%
CCc1ccc(NC(=O)C(=O)NCCN2CCN(C(=O)c3ccco3)CC2)cc1	i
CC1=C(C(=O)Nc2cc(C)ccc2C)C(c2ccc(Br)cc2)NC(=O)N1 (stereo not drawn)	i

Screening results deposited in PubChem by Southern Research Institute.

Only part of the results is shown. The share of hits here may be higher or lower than overall.
